E coli growth – E. coli growth inhibition, primary screen, OD600; OD600 absorbance (no concentration beside the values); AID 1053175, 2014; Escherichia coli growth, 23 h; active compounds read low; hit rate 0.21% among 330,000;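 active = OD600 absorbance below the run mean of sample wells minus 3.6 SD, in any replicate, cut at about 0.56 in these data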;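 note: stock transfer was 300 nL into about 60 µL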
FGF22 binding – binders of human FGF22 protein, primary screen, FGF22 synaptogenesis inhibitor project, biophysical, thermal shift, single point | Fibroblast growth factor 22 (Homo sapiens), Q9HCT0 | recombinant FGF22 thermal shift, SYPRO orange fluorescence; percent of sucrose octasulfate shift, DMSO zero | calls only at 9.99 µM | hit rate 1.5% among 340,000;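 active = melting point raised past a set limit in the mean and every replicate; inconclusive = no clear call; three in four hits are not shown here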
Target sequence (Q9HCT0 whole entry, looked up): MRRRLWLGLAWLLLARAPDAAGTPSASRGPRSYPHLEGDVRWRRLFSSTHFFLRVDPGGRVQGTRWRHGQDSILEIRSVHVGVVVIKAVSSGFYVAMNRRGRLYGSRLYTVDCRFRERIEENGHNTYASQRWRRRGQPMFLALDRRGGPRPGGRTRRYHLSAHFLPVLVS
UCH37 inh – inhibitors of human UCH37 deubiquitinase, primary screen, biochemical, Ub-AMC cleavage, fluorescence; purified proteasome/UCH37; inhibition, % (test concentration not listed); AID 588478, 2011; Ubiquitin carboxyl-terminal hydrolase isozyme L5 (Homo sapiens), Q9Y5K5; hit rate 0.33% among 330,000;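 active = mean of two replicates above 20%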;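 note: 0% = compound-free wells with enzyme and 100% = wells lacking proteasome; stock transfer was 100 nL into about 20 µL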
Target sequence (Q9Y5K5 whole entry, looked up): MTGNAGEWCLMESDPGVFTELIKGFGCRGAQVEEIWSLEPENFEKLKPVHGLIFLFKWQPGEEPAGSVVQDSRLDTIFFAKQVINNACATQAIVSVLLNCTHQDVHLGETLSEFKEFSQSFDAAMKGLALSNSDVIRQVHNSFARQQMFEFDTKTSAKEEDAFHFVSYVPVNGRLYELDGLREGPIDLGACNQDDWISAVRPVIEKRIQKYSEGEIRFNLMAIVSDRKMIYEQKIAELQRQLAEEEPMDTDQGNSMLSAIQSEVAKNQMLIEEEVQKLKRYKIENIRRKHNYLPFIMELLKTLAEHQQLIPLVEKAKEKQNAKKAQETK
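Test system – human UCH37 enzyme supplied as purified proteasome complex · Incubation – 30 min preincubation with enzyme, 25 min cleavage at room temperature · Detection – AMC fluorescence from Ub-AMC cleavage, excitation 355 nm, emission 460 nm · Benchmarks – no-proteasome wells (full inhibition) and compound-free wells (no inhibition)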
RanGTP-Imp inh – inhibitors of RanGTP-importin-beta interaction, primary screen, biochemical, FRET, CFP-Ran, YFP-importin-beta, homogeneous | hit rate 1.1% among 300,000 | inhibition, % (concentration not given with the values) | Ran GTPase (GTP-bound) - importin-beta complex | cell-free CFP-Ran/YFP-importin-beta FRET ratio;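 active = most replicates above 15%; inconclusive = exactly half above 15%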;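 note: 0% = DMSO wells and 100% = Ran loaded with GDP instead of GTP; wells of about 40 µL received 100 nL stock; the first replicate is given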
HNF4A DNA FP – change in binding of human HNF4A to DNA, primary screen, biochemical, fluorescence polarization, FITC-DNA; Hepatocyte nuclear factor 4-alpha (Homo sapiens), P41235; hit rate 0.3% among 360,000; activity change, % at 10 µM; 1 h; AID 1224865, 2016; in the data active = activity change above about 30%, passing the limit was not always enough;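 note: controls were the assay level and a saturating level of protein; the project sought stronger binding though the title names inhibitors; some compounds called inactive have numbers as strong as hits; positive values seem to mean higher polarization but the record does not say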
Target sequence (P41235 whole entry, looked up): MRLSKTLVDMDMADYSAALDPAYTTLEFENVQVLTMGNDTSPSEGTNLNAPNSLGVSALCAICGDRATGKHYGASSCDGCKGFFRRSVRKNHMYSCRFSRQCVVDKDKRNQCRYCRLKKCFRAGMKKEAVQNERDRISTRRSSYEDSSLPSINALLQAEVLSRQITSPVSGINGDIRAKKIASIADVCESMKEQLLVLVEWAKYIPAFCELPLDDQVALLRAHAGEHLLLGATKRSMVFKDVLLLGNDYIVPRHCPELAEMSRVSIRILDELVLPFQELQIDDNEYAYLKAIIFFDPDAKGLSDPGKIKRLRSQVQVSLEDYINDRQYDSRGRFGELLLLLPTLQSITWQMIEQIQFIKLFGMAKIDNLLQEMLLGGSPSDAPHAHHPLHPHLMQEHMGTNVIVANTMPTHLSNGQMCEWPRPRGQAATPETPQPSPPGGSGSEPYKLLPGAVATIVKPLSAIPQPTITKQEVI
Vif TR-FRET – inhibitors of Vif binding to APOBEC3G peptide, primary screen, biochemical, TR-FRET, GST-Vif 1-94, biotin-A3G peptide, dose response retest (AID 1117319). TR-FRET GST-Vif / biotin-A3G peptide binding; higher % means a stronger effect; test concentration not given here; strong numbers were not always called active. Virion infectivity factor (Human immunodeficiency virus type 1 group M subtype B (isolate …. inhibition, %; hits with a dose series show IC50 in µM. hit rate 0.57% among 260,000;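 active = above the screen mean plus three standard deviations and confirmed in dose response; inconclusive = results disagree or hit not tested in dose response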;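 note: Vif residues 1-94 fused to GST binding biotinylated APOBEC3G peptide 110-148; 0% = full assay without inhibitor and 100% = GST in place of GST-Vif; retest series ran down from 100 µM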
AF4-AF9 inh – inhibitors of AF4 peptide binding to AF9, primary screen, biochemical, AlphaScreen, biotin-AF4 peptide, FLAG-AF9, single point; Protein AF-9 (Homo sapiens), P42568; inhibition, % at 10 µM; hit rate 0.47% among 350,000; AID 651704, 2012;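 active = every replicate reaching a set inhibition limit, whatever the replicate mean, cut at about 25% in these data; inconclusive = mean inhibition reaches that limit but some replicates miss it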;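 note: 0% = plate neutral control median and 100% = total signal loss; the record names both 10 and 1 µM as test concentration; the first replicate is given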
Starred values were filed as active, the others as inactive; i = inactive; ? = inconclusive; / = not tested or not shown.

SMILES | E coli growth | FGF22 binding | UCH37 inh | RanGTP-Imp inh | HNF4A DNA FP | Vif TR-FRET | AF4-AF9 inh
CCCCC(=O)Nc1cc(C)c2c(=O)oc3ccccc3c2n1 | 0.8 | / | -3.9 | 7.0 | 7.3 | 8% | /
O=C(CN1CCCCC1)N1CCN(C(=O)CN2CCCCC2)CC1 | 0.71 | / | -2.3 | ? | / | -1% | /
CC(=O)c1ccc(NC(=O)C(C)OC(=O)c2ccc(Br)o2)cc1 (stereo unspecified) | 0.64 | i | 3.2 | / | -0.2 | -10% | 1.7
Cc1cc(C(F)F)n2nc(C(=O)Nc3c(F)cc(F)cc3Br)nc2n1 | 0.69 | / | 1.0 | 3.7 | -2.5 | 10% | /
CCCn1nc(C(=O)NC2CCCC2)c2ccccc2c1=O | 0.7 | i | 4.1 | / | -1.6 | / | -1.0
CCCC(=O)Nc1cccc(NC(=O)c2ccc3c(c2)OCO3)c1 | 0.63 | / | 0.9 | ? | -0.7 | -7% | /
NS(=O)(=O)c1ccc(CCNC(=O)CN2CCCCC2)cc1 | 0.68 | i | 3.9 | 3.3 | -1.5 | -2% | -0.8
COc1cc(CNCc2ccccc2Cl)ccc1OCC(=O)NC1CCCCC1 | 0.67 | i | 2.2 | 1.4 | 1.2 | / | -1.1
O=C1CN(c2ccc(F)cc2)C(=S)N1c1ccccc1 | 0.69 | i | 2.4 | -1.0 | 0.7 | 3% | 0.4
CN(Cc1c(F)cccc1Cl)C(=O)CCc1c[nH]c2ccccc12 | 0.67 | i | 5.1 | 4.2 | -4.7 | / | 4.6
COc1ccc(OC)c(NC(=O)c2cc(-c3ccc(C)cc3O)n[nH]2)c1 | 0.69 | / | 0.9 | 5.6 | -5.6 | -2% | /
CC(C)c1ccc(/C=N/NC(=O)c2nnn(-c3nonc3N)c2CN2CCOCC2)cc1 | / | i | / | -2.4 | -2.3 | -5% | 4.0
O=C(C1CCN(S(=O)(=O)c2ccccc2)CC1)N1CCN(c2ccccc2)CC1 | 0.66 | i | 3.0 | 5.0 | 1.6 | / | -1.5
O=C(NNS(=O)(=O)c1ccc(Br)cc1)c1csnn1 | 0.71 | i | 1.3 | / | -2.6 | 6% | -4.9
CCC(Sc1ncnc2sc(C)c(C)c12)C(=O)OC (stereo unspecified) | 0.73 | / | 0.9 | 2.0 | 3.6 | 16% | /

Two entries drawn at random from the list so far, as already listed:
SMILES | E coli growth | FGF22 binding | UCH37 inh | RanGTP-Imp inh | HNF4A DNA FP | Vif TR-FRET | AF4-AF9 inh
CCCn1nc(C(=O)NC2CCCC2)c2ccccc2c1=O | 0.7 | i | 4.1 | / | -1.6 | / | -1.0
O=C(CN1CCCCC1)N1CCN(C(=O)CN2CCCCC2)CC1 | 0.71 | / | -2.3 | ? | / | -1% | /

Additional entries.
SMILES | E coli growth | FGF22 binding | UCH37 inh | RanGTP-Imp inh | HNF4A DNA FP | Vif TR-FRET | AF4-AF9 inh
CC(C)[C@H](NC(=O)c1ccco1)C(=O)Nc1ccc(N2CCCCCC2)cc1 | / | i | / | / | 0.0 | 3% | -0.1
CC(CC1C(C#N)=C(N)OC2=C1C(=O)CCC2)c1ccccc1 (stereo unspecified) | 0.68 | / | -3.0 | 3.3 | -1.0 | 1% | /
COc1ccc(/C=C/C(=O)NCC(=O)N/N=C(/C)c2ccc(Cl)cc2)cc1 | / | i | / | 5.3 | -2.6 | / | -1.4
COc1ccc(-n2c(C)c3c(OC)cccc(=O)c3c2C)cc1 | 0.65 | / | 7.0 | -11 | 0.6 | 33% | /
COCC(=O)NC1CCCCCC1 | 0.62 | i | 0.3 | -0.3 | 6.2 | -2% | -1.5
O=C(O)c1cc(NN=Nc2cccc(S(=O)(=O)O)c2)cc([N+](=O)[O-])c1 | 0.66 | i | 15 | 0.5 | -1.3 | 10% | -2.4
O=C(O)c1cccc(NC(=S)NC(=O)c2ccc3ccccc3c2)c1 | 0.71 | i | 7.0 | -1.9 | 1.1 | 4% | 0.1
Cc1cc(C)n(-c2nc(NCCCN(C)C)c3c4c(sc3n2)COC(C)(C)C4)n1 | 0.69 | i | -3.3 | 3.8 | -1.1 | 15% | /
Nc1nc(-c2ccco2)nn1C(=O)c1ccc(Cl)cc1 | 0.76 | / | 4.2 | -7.6 | -9.6 | -4% | /
CC(=O)c1ccc2c(c1)C1C=CCC1C(c1ccc(S(=O)(=O)N3CCOCC3)cc1)N2 (stereo unspecified) | 0.6 | / | 2.4 | / | 2.7 | / | /
CCCCN(CC)S(=O)(=O)c1ccc(C(=O)Nc2nnc(-c3ccccc3Cl)o2)cc1 | 0.73 | / | -0.5 | 6.6 | -2.7 | -11% | /
CC(C)Oc1ccc(CNC(=S)N/N=C/c2cccnc2)cc1 | / | / | / | 2.8 | -3.0 | -4% | /
Cc1ccc(S(=O)(=O)NCCN2CCN(S(=O)(=O)c3ccccc3Cl)CC2)cc1 | 0.63 | i | -0.6 | / | 0.0 | -9% | -7.3
O=C(Nc1ccc2oc(-c3ccncc3)nc2c1)c1ccc(F)cc1 | 0.69 | i | -25 | 3.3 | 2.5 | -15% | 0.2
COc1cccc(NC(=O)Nc2nc(SC)ns2)c1 | 0.64 | i | 5.4 | 2.3 | 1.6 | / | -1.5
NC(=O)c1cccc([N+](=O)[O-])c1 | 0.68 | i | 1.9 | / | 5.1 | / | /
COc1ccc(N2C(=O)C3CCCN3C2c2ccccc2F)cc1 (stereo unspecified) | 0.75 | i | 3.3 | -0.7 | 1.2 | 4% | -6.5
S=C(/N=c1/sccn1Cc1ccccc1)NC1CC1 | / | i | / | 2.8 | -3.7 | -2% | 2.1
O=C(CN1CCN(c2ccccc2)CC1)Nc1nnc(-c2ccccc2)s1 | 0.79 | / | 3.4 | 2.9 | 2.2 | -7% | /
CC(=O)c1c(C)nc2ccc(Br)cc2c1C(=O)O | 0.71 | i | 6.6 | 6.7 | 1.2 | -1% | -2.4
O=C(Nc1cccc(F)c1)c1ccc(Br)o1 | 0.66 | i | 1.6 | 0.8 | 8.3 | 5% | 4.0
CCOC(=O)N1CCN(C(=O)c2cc(OCC)c(OCC)c(OCC)c2)CC1 | 0.68 | i | 3.7 | -0.3 | 0.7 | / | -0.3
Cc1ccc(C(=O)n2nc(-n3cccc3)c3c(C)cc(C)nc32)cc1 | 0.72 | i | 6.9 | ? | 1.3 | / | -0.8
CN(Cc1ccncc1)C(=O)[C@@H]1CCCN1C(=O)[C@@H]1CCCN1 | / | i | / | / | 0.7 | / | -2.9
Cc1cc(C)c(S(=O)(=O)n2cnc3ccccc32)c(C)c1 | 0.72 | i | 0.3 | -1.3 | -1.0 | 11% | 0.5
Cc1cc(C)cc(NCc2cc(=O)oc3cc(-c4ccccc4)c(O)cc23)c1 | 0.68 | / | 3.0 | -2.1 | -2.9 | / | /
OCCC1CN(Cc2ccon2)CCN1CCc1ccccc1 (stereo unspecified) | 0.7 | i | 0.4 | ? | 2.7 | 4% | -0.1
CC(C)(C)c1[nH]nc2c1C(c1ccc(OC(=O)c3ccco3)cc1)C(C#N)=C(N)O2 (stereo unspecified) | 0.69 | / | 4.1 | 3.8 | -1.1 | -7% | /
O=C(c1cccc(S(=O)(=O)N2CCCCC2)c1)N1CCN(S(=O)(=O)c2ccc(F)cc2)CC1 | / | / | / | 1.7 | -1.2 | 1% | /
CCOC(=O)/C(=N\Nc1ccc(Cl)cc1)c1csc(Nc2ccccc2)n1 | / | / | / | 4.9 | 0.8 | 1% | /
CCC(=O)NC(c1cc(Cl)c2ccccc2c1O)C1CC1 (stereo unspecified) | 0.69 | i | 1.1 | / | -0.5 | / | 0.8
COCC(C)NC(=S)NCCc1ccc(Cl)cc1Cl (stereo unspecified) | 0.65 | i | 5.0 | 1.6 | 4.8 | 0% | 1.2
O=C(CSc1n[nH]c(=O)n1Cc1ccco1)c1ccc(F)cc1 | 0.61 | i | 2.8 | -1.3 | 3.9 | 2% | -0.3
COc1ccc(OCc2cc(C(=O)NC3CCc4ccccc43)no2)c(Cl)c1 (stereo unspecified) | 0.73 | i | 4.3 | -4.5 | 0.1 | / | 1.0
Fc1ccc(CN2CCCCCCC2)cc1 | 0.71 | / | 2.8 | 0.9 | -6.0 | ? | -3.9
CCCNC(=O)C1(C)CCN(C(=O)c2cc(C)n(C(C)(C)C)n2)C1 (stereo unspecified) | / | i | / | / | -0.4 | / | -1.8
O=C(CCCc1nc2ccccc2s1)N1CCN(c2ccccc2F)CC1 | 0.71 | i | 3.2 | -1.2 | 1.4 | -11% | -2.8
Cc1nc(SCC(=O)Nc2ccccc2Cl)c2c(C)c(C)sc2n1 | 0.66 | i | 1.1 | / | 3.5 | -24% | -0.2
CCC(=O)NCCc1nc(-c2ccccc2)no1 | 0.69 | i | 18 | -0.3 | -0.4 | / | 1.9
CCC1NC(=O)c2cc3ccccc3cc2-n2c1nc1ccc(F)cc1c2=O (stereo unspecified) | / | i | / | / | -1.7 | -2% | 0.9
COc1ccccc1CN(C)C(=O)c1cc(-c2cc(OC)c(OC)c(OC)c2)nc2ccccc12 | 0.69 | i | -154 | 1.8 | -0.8 | -1% | 0.3
CCC(=O)Nc1ccc(N2CCCCC2)c(C(=O)Nc2ccccc2C)c1 | 0.67 | / | -3.8 | -1.6 | -0.5 | 3% | /
CC(=O)Nc1ccc2c(c1)CN(c1cc(C)ccc1C)CO2 | 0.67 | / | 1.8 | -11 | 0.2 | / | /
Cc1cccc(NC(=O)CC2NCCNC2=O)c1 (stereo unspecified) | 0.73 | / | 0.2 | -3.6 | -2.1 | -7% | /
CC(Oc1ccc(Cl)cc1)C(=O)N(C)CC(=O)Nc1ccc(N2CCOCC2)cc1 (stereo unspecified) | 0.71 | i | 0.3 | -3.4 | 5.5 | -1% | 9.7
O=C(Nc1ccc(F)c(Cl)c1)c1cc(C2CCCCN2C(=O)CCc2ccccc2)on1 (stereo unspecified) | / | i | / | / | -1.7 | / | -2.1
CCOc1cccc(N(C(=O)c2ccco2)C(C(=O)NC2CCCC2)c2cccnc2)c1 (stereo unspecified) | 0.68 | i | 2.1 | 4.2 | -1.6 | / | 0.2
O=C(N/N=C/c1ccccc1O)c1ccc2c(c1)OCO2 | / | i | / | 2.9 | -1.5 | -7% | 0.7
COc1ccccc1NC(=O)N(O)C1(C#N)CCCCC1 | / | i | / | / | 4.2 | -9% | 1.6
COc1ccccc1N1CCN(C2CCCN(C(=O)CCC(=O)N(C)C)C2)CC1 (stereo unspecified) | 0.66 | i | 1.2 | -0.3 | -0.7 | -1% | -4.8
Cc1ccnc(OC(C(=O)O)C(OCCc2ccccc2)(c2ccccc2)c2ccccc2)n1 (stereo unspecified) | 0.68 | i | 1.3 | 1.1 | -0.6 | -4% | -1.2
C[C@H](NC(=O)c1nc[nH]c1C(=O)NCCCCCNC(=O)OC(C)(C)C)C(=O)OC(C)(C)C | / | i | 1.5 | 2.8 | -0.2 | / | 5.1
O=C(Nc1ccccn1)c1ccc2ccccc2n1 | 0.71 | / | -1.2 | 2.3 | 2.3 | -1% | /
CC(C)=CC(=O)N1CCC(N2CCC(C(=O)N3CCOCC3)CC2)CC1 | 0.71 | i | 1.2 | 4.3 | 6.8 | 12% | 2.3
CCn1c(SCC(=O)Nc2sc3c(c2C(N)=O)CCC(C)C3)nnc1-c1ccco1 (stereo unspecified) | 0.7 | / | 1.4 | 3.8 | -3.7 | 14% | /

Not all compounds are listed (hit frequency here may not be typical).
